High-throughput results (PubChem BioAssay)
GLA inh pH 4.5 – qHTS Assay for Inhibitors of Human alpha-Galactosidase at pH 4.5 | Alpha-galactosidase A (Homo sapiens), P06280 | purified enzyme, 4-MU-alpha-Gal fluorescence, pH 4.5 | activity change, negative = inhibition, % at 105 µM | 230,000 tested, under 10 active; inconclusive = small, poorly fitted or top-dose-only inhibition, or a rising curve; inactive = flat fitted curve, though single readings scatter; no compound was filed as active;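 further: 0% = full activity with enzyme and -100% = basal without enzyme; dose as in the result columns while the protocol names 77 µM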
Rango-impB inh – qHTS Assay for Inhibitors of Rango (Ran-regulated importin-beta cargo) - Importin beta complex formation; Importin subunit beta-1 (Homo sapiens), Q14974; Rango CFP/YFP FRET sensor + importin beta, 45 min; Potency, µM (doses to about 92.2 µM), for the others: at the highest dose inhibition of complex formation; actives 0.031% (n = 340,000); AID 540263, 2011; active = rising FRET ratio curve, often small or poorly fitted; inconclusive = mostly compound fluorescence or quenching in the first reads; inactive = flat curves in all reads;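 further: potency means the concentration at half of the fitted maximal effect; 0% = DMSO wells and 100% = buffer wells lacking importin beta; nearly all actives have a fitted effect of over 15% in size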
Target sequence (Q14974 whole entry, looked up): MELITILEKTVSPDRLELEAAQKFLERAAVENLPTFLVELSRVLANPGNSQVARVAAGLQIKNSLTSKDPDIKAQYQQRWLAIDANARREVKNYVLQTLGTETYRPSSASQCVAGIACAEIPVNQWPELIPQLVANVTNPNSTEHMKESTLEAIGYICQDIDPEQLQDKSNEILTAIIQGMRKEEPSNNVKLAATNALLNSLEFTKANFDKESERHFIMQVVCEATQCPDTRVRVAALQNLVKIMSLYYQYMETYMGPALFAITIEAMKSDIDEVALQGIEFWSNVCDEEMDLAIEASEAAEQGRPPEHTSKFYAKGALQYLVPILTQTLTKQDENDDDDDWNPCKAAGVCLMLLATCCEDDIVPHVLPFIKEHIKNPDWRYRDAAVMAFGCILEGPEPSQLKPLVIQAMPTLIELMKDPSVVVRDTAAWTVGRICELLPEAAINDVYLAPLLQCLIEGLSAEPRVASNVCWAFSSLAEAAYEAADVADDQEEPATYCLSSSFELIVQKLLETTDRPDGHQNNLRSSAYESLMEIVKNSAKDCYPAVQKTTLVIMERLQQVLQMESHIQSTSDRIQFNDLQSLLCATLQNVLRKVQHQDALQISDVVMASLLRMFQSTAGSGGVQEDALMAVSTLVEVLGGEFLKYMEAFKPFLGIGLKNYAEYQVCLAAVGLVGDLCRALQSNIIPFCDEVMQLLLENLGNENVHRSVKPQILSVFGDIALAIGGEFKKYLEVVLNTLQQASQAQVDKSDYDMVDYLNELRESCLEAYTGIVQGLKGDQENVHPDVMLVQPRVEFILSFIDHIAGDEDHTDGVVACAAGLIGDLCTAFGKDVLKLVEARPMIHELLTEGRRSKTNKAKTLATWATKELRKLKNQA
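FRET biosensor (snurportin 1 IBB flanked by EYFP and cerulean), 50 nM, with compound 5 min, then 0.125 microM importin beta in PBS, 1 mM DTT, 0.02% Tween-20, 0.1% BSA. CFP/YFP ratio read after 45 min at room temperature; pre-read flags interference.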
miR-21 FLuc – qHTS Assay for Modulators of miRNAs and/orActivators of miR-21; HeLa miR-21 FLuc reporter, luciferase, 48 h; Potency, µM (doses to about 38.3 µM), inactives show at the highest dose reporter change, positive = more light; 340,000 tested, under 10 active; AID 2288, 2010; active = well fitted rising curve with a large enough effect; inconclusive = small, poorly fitted or top-dose-only effect; inactive = no such curve, though single readings can be large or run the other way;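 further: % of control where 0% means no effect; miR-21 action dims this reporter so a rising signal means less miR-21 action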
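Using DMEM plus 10% FBS, HeLa miR-21-FLuc cells are incubated with test compounds (final up to about 40uM) for 48 hours; firefly luciferase signal is then imaged following reagent-mediated lysis.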
Rango release inh – qHTS Assay for Inhibitors of RanGTP induced Rango (Ran-regulated importin-beta cargo) - Importin beta complex dissociation; Snurportin-1 (Homo sapiens) + GTP-binding nuclear protein Ran (Homo sapiens) + Importin …; Biochemical FRET Rango-importin beta, RanGTP-induced dissociation; Potency, µM (doses to about 46.1 µM), without a hit: at the highest dose activity change, negative = inhibition; actives 0.071% (n = 340,000); active means falling FRET ratio curve, often poorly fitted, with flat reads before Ran was added; inconclusive means other falling curves, or compound fluorescence or quenching; inactive means flat or rising ratio curve;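 further: potency means the concentration at half of the fitted maximal effect; % of control where 0% means no effect; nearly all actives have a fitted effect of over 45% in size; -100% = wells without RanGTP and RCC1; the record marks most hits as doubtful in a second field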
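Recombinant Rango FRET biosensor (EYFP–snurportin 1 IBB–cerulean CFP10) at 0.1 uM premixed with 0.25 uM importin beta in PBS, 1 mM DTT, 0.02% Tween-20, 0.1% BSA. Compound added 5 min; RanGTP-RCC1 (0.6 uM Ran, 2 mM GTP, 0.2 uM RCC1) then triggers release, read at 45 min.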
* hit, by the source's call; ? = inconclusive; / = not tested or not shown; & = joins results of further samples. A portion of the library, so the mix of outcomes need not match the whole.

Preview, 4 compounds:
SMILES | GLA inh pH 4.5 | Rango-impB inh | miR-21 FLuc | Rango release inh
COCCCNC(=O)Cn1cc(/C=C2\C(=O)NC(=O)N(c3ccccc3F)C2=O)c2ccccc21 | / | -4.0% | 5.0% | -10.8%
Cc1cc(C(=O)Nc2ccccc2)nn1C(C)(C)C | -1.3 | 0.0% | -61.6% | 4.4%
CCOC(=O)c1c(C)n(Cc2ccccc2)c2ccc(OCC(O)Cn3nc(C)nc3C)cc12 (configuration not stated) | -8.0 | 0.7% | 4.4% | 30.4%
CCCOC(=O)C1C2c3ccccc3C(c3ccccc32)C1C(=O)O (configuration not stated) | -4.7 | 0.3% | 0.2% | 0.8%

The whole of this part (from the top)
SMILES | GLA inh pH 4.5 | Rango-impB inh | miR-21 FLuc | Rango release inh
COCCCNC(=O)Cn1cc(/C=C2\C(=O)NC(=O)N(c3ccccc3F)C2=O)c2ccccc21 | / | -4.0% | 5.0% | -10.8%
Cc1cc(C(=O)Nc2ccccc2)nn1C(C)(C)C | -1.3 | 0.0% | -61.6% | 4.4%
CCOC(=O)c1c(C)n(Cc2ccccc2)c2ccc(OCC(O)Cn3nc(C)nc3C)cc12 (configuration not stated) | -8.0 | 0.7% | 4.4% | 30.4%
CCCOC(=O)C1C2c3ccccc3C(c3ccccc32)C1C(=O)O (configuration not stated) | -4.7 | 0.3% | 0.2% | 0.8%
CC1(C)C2CC=C(CN3CCOCC3)C1C2 (configuration not stated) | -4.5 | -1.3% | 2.3% | 0.3%
CC(=NCc1cccnc1)c1c(O)n(-c2ccc(C)cc2)c(=O)[nH]c1=O | -2.3 | -5.4% | -2.9% | 1.6%
Cc1ccc(N2C(=O)NC(=O)/C(=C\c3cnc(-c4ccccc4)nc3)C2=O)cc1 | 1.7 | 1.9% | -15.9% | 4.6%
Cn1cc(C(=O)N2CCCCC2)c2ccccc21 | 3.2 | -0.1% | -4.9% | 24.1%
Cn1cccc1C1CCCN1CC(=O)Nc1ccc(C#N)c(Cl)c1 (configuration not stated) | / | 0.2% | / | -1.1%
CC(=O)Nc1ccc(OCCF)cc1 | 2.0 | 5.6% | -4.7% | 12.6%
COc1cc(C(=O)N/N=C/C23CC[C@@H](O)CC2(O)CC[C@@H]2[C@@H]3CCC3(C)C(C4=CC(=O)OC4)CCC23O)ccc1O (some centres not stated) | 5.2 | -5.0% | 26.7% | -3.3%
Cn1c(O)c(/C=C/C=Nc2ccccc2)c(=O)n(C)c1=S | -8.2 | ? | -3.7% | ?
C=C[C@H]1CN2CC[C@H]1C[C@@H]2[C@@H](O)c1ccnc2ccccc12 | / | 3.1% | / | 10.9%
CCC(=NCC1CCCO1)c1c(O)n(-c2ccccc2C)c(=O)[nH]c1=O (configuration not stated) | 0.1 | -1.0% | 1.8% | 0.5%
C=C[C@@]12CN(C)[C@H]3[C@H]1[C@@]1(C(=O)Nc4ccccc41)C1CC2[C@@H]3CO1 | / | 0.5% | / | 12.7%
COc1ccc(Br)cc1CNCCc1ccc2c(c1)OCO2 | / | 0.4% | / | 0.3%
Brc1ccccc1CNCCc1ccc2c(c1)OCO2 | / | -4.3% | -19.4% | 25.3%
C=CCn1cc(C=C2C(=O)NC(=O)NC2=O)c2ccccc21 | / | ? | -4.5% | ?
O=C1NC(=O)C(=Cc2ccc(-c3ccc(F)cc3O)o2)C(=O)N1 | / | ? | 25.4% | -16.1%
CCN(CC)C(=O)c1ccc(NC(=O)COc2ccc(-c3nn(C)c(=O)c4ccccc34)cc2)cc1 | / | -2.5% | 13.6%&18.2% | -5.7%
Oc1ccc(Cl)cc1CN1CCN(Cc2ccccc2)CC1 | -11.3 | ? | -8.0% | 1.2%
O=C(Nc1ccc(C(F)(F)F)cc1)OC1CN2CCC1CC2 (configuration not stated) | -18.9 | 1.0% | -29.3% | 3.2%
Cc1nnc(SCc2nc3ccccc3c(=O)n2-c2ccccc2Cl)n1N | -2.6 | 1.1% | -3.5% | -10.1%
CCOC(=O)Cn1cc(C(=O)c2ccccc2)c2ccccc21 | / | -0.6% | -6.6% | 2.3%
O=S(=O)(c1ccc(Cl)cc1Cl)N1CCCC1c1cccnc1 (configuration not stated) | 3.2 | 4.1% | -4.2% | 7.8%
Cc1nn(Cc2ccccc2)c(Cl)c1C(=O)Nc1ccc(OC(F)(F)F)cc1 | 5.6 | -2.4% | -0.5% | 4.7%
N=C1c2ccccc2CN1c1ccc(F)c([N+](=O)[O-])c1 | -8.8 | 0.5% | 5.2% | 8.8%
COc1cc(CCN)ccc1O | -0.7 | -0.9% | / | -12.1%
COc1ccc(C(=O)C2CCCN(CCO)C2)c(C)c1 (configuration not stated) | / | 3.0% | 1.9% | 2.5%
CC[N+](C)(CC)CCCCOc1ccc2c(c1)C(=O)c1cc(OCCCC[N+](C)(CC)CC)ccc1-2 | 6.0 | -2.3% | 6.9% | 20.0%
CNS(=O)(=O)c1cc(NC(=O)c2cccc3cccnc23)ccc1C | / | -1.8% | -53.3% | 40.9%
C=CCn1c(O)c(C(CC)=Nc2ccc(N(C)C)cc2)c(=O)[nH]c1=O | -1.5 | -0.9% | -1.0% | -0.4%
COc1ccc(CCNCc2ccc(F)cc2)cc1OC | 4.7 | 1.2% | -2.7% | -9.7%
CCN1C(=O)/C(=C/c2ccc3c(c2)CCN3CCCCl)C(=O)NC1=S | -1.3 | -2.1% | -3.6% | ?
O=C(CCC(=O)N1CCC2(CC1)OCCO2)Nc1nnc(C2CCCCC2)s1 | 4.2 | 0.2% | 3.9% | -15.3%
CC(O)C1C=CC=CC(=O)OC2CC3OC4C5OC5(C)CCC4(COC(=O)C4OC4(C)C(O)CO1)C2(C)C31CO1 (configuration not stated) | / | 0.4% | / | 4.7%
CC(C)CNC(=O)c1c(N)n(Cc2ccc3c(c2)OCO3)c2nc3ccccc3nc12 | 11.3 | ? | 22.5% | ?
C=CCn1c(O)c(/C(CC)=N/NC(=S)Nc2ccccc2)c(=O)[nH]c1=O | -3.4 | 2.6% | -33.2% | 19.3%
COc1cccc(NP(=O)(Oc2ccccc2)Oc2ccccc2)c1 | -6.8 | 2.0% | 22.0% | -5.4%
CN1C(=O)C(=Cc2ccc(-c3cccc(Cl)c3)o2)C(=O)N(C)C1=O | -6.9 | / | -2.8% | /
CC12CC[C@H]3[C@@H](CCC4(O)C[C@H](O)CCC34/C=N/NC(=O)Cc3ccccc3)C1(O)CCC2C1=CC(=O)OC1 (some centres not stated) | 8.5 | -3.2% | ? | 6.8%
O=C(Cn1ncc2ccccc21)N1CCC2(CC1)OCCO2 | -0.6 | -3.1% | -11.1% | -16.2%
COc1ccc(CCNCc2ccncc2)cc1 | 7.4 | 4.3% | -3.4% | 15.6%
COc1ccc(C2N3CC(C)(C)CN23)cc1 (configuration not stated) | 9.3 | / | -7.6% | /
CC(C)(C)c1ccc(CN2C(=O)CN=C(c3ccccc3)c3ccccc32)cc1 | ? | -4.2% | -0.2% | -13.2%
C=CC12CN(C)[C@@H]3C4CO[C@H](C[C@H]41)[C@]1(C(=O)Nc4ccccc41)[C@@H]32 (some centres not stated) | / | -0.2% | / | 11.4%
CCOc1ccc(N2C(=O)CC(=O)NC2=O)cc1 | / | -2.9% | -2.2% | -2.8%
CC(C)(O)/C=C/C(=O)[C@](C)(O)C1[C@H](O)C[C@@]2(C)C3CC=C4C(C=C(O[C@@H]5O[C@H](CO)[C@@H](O)[C@H](O)[C@H]5O)C(=O)C4(C)C)[C@]3(C)C(=O)C[C@]12C (some centres not stated) | / | -1.4% | / | 0.6%
O=C(COc1ccc(Cl)cc1)N1CCN(C/C=C/c2ccccc2)CC1 | 2.4 | -3.4% | 13.4% | 0.6%
CC1(C)NC(=S)C(C)(C)N1N=O | / | -1.1% | / | 10.6%
COc1cccc(-n2c(C)nc3ccccc3c2=O)c1 | 1.4 | -3.1% | -11.9% | -5.0%
Cc1cc(=O)[nH]c(SCc2nc3ccccc3c(=O)n2-c2ccccc2C)n1 | 6.3 | 1.1% | -16.2% | 14.9%
O=C(N/N=C/c1c(O)n(C2CCCCC2)c(=S)[nH]c1=O)c1ccccc1 | / | ? | -22.4% | ?
C[C@H]1CC[C@@]2(C)[C@@H](CC[C@@H]3[C@@H]2CC[C@]2(C)[C@@H](O)CC[C@@H]32)C1 | 5.6 | -0.9% | -6.5% | -6.9%
O=c1c2ccccc2nc(-c2ccccc2)n1-c1cccc(O)c1 | 10.1 | 4.9% | 8.9% | 1.2%
NP(=O)(OCC(F)(F)F)Oc1cccc2ccccc12 (configuration not stated) | -0.8 | 0.7% | -4.4% | 0.5%
CN(C)S(=O)(=O)c1cc(C(=O)N2CCC(C(=O)O)(c3ccccc3)CC2)ccc1Cl | / | ? | 3.3% | -4.2%
C=CCn1c(O)c(C=Nc2ccc(OC)cc2C)c(=O)[nH]c1=O | 0.2 | -1.5% | 0.1% | 4.7%
Cc1nc2ccccc2c(=O)n1/N=C/c1cc(Br)cc(Br)c1O | / | ? | / | ?
Cc1c(C(=O)N2CCC3(CC2)OCCO3)oc2ccc(S(=O)(=O)N3CCCCC3)cc12 | -4.4 | 4.2% | -9.2% | -18.1%
(further entries)
SMILES | GLA inh pH 4.5 | Rango-impB inh | miR-21 FLuc | Rango release inh
COCc1cc(C2SCC(=O)Nc3c2c(=O)[nH]n3C(C)C)ccc1OC (configuration not stated) | -11.1 | -1.2% | 0.4% | -0.9%
COC(=O)C1=C(c2cc3ccccc3o2)C[C@@H]2CC[C@H]1N2C(=O)NCc1ccc(F)cc1 | / | 1.5% | / | 0.6%
NC(=O)c1ccc(OCCC(O)N2CC=C(c3ccc(F)cc3)CC2)cc1 (configuration not stated) | / | 8.6% | / | 29.2%
COC(=O)C1=C(c2cccc(NC(C)=O)c2)C[C@@H]2CC[C@H]1N2C | / | 0.5% | / | 0.5%
CN1CCC(N(C)c2ncnc3ccc(Br)cc23)CC1 | 0.2 | 1.4% | -5.6% | 20.1%
O=C(C(Cc1ccccc1)NS(=O)(=O)c1cccc2nsnc12)N1CCC2(CC1)OCCO2 (configuration not stated) | -5.3 | 2.2% | -5.0% | ?
O=C(Cc1ccccc1)N1CCN(Cc2cccc(Br)c2)CC1 | 5.2 | -1.1% | 2.6% | 25.7%
CCCc1c(C)nc(SCC(=O)C(C)(C)C)nc1OC(=O)N(C)C | -11.7 | 0.3% | -1.1% | 5.9%
Nc1ccccc1C(=O)c1ccccc1 | -0.3 | 0.4% | -4.2% | -0.8%
O=C1C[C@@H](c2ccc(O)cc2)Oc2cc(O)cc(O)c21 | 6.0&5.6 | -10.1% | -25.2% | 0.4%
CC(C)(C)c1cc([N+](=O)[O-])cc(C(C)(C)C)c1O | -7.4 | -0.6% | 28.1% | 27.6%
N/C(=N\[N+](=O)[O-])N1CCN(C(=O)Oc2ccccc2)CC1 | / | 0.2% | -1.4% | -0.9%
O=C(O)CCn1cc(C=C2C(=O)NC(=O)NC2=O)c(-c2cc3ccccc3oc2=O)n1 | 5.3 | 7.5% | -1.9% | 4.7%
C=CCN1C(=O)NC(=O)/C(=C/c2cccn2C)C1=O | 0.5 | 0.0% | 5.1% | -15.6%
CCOc1ccc(C2CC(c3c(O)n(C)c(=O)n(C)c3=O)=NN2)cc1 (configuration not stated) | -6.6 | 0.6% | 10.9% | -7.3%
CN1C(=O)C(=Cc2cn(CC#N)c3ccccc23)C(=O)N(C)C1=O | / | -2.6% | 0.2% | -4.4%
C#CCOc1cc(C2C3=C(COC3=O)Nc3cc4c(cc32)OCO4)ccc1OC (configuration not stated) | -2.9 | ? | 28.5% | -17.2%
COc1cc2c(cc1OC)C13CCN4C=C5CCOC6CC(=O)N2C1C6C5CC43 (configuration not stated) | / | 0.9% | / | 0.3%
COC(=O)C1=C(c2ccc3ccccc3c2)C[C@@H]2CC[C@H]1N2C(=O)NCC1CC1 | / | -3.4% | / | 12.1%
O=C(Cn1c(=O)c(C(F)(F)F)nc2ccccc21)N1CCC2(CC1)OCCO2 | -2.7 | -0.5% | -1.0% | -15.8%
